Screens (PubChem)
VDR inh = inhibitors of human vitamin D receptor. 400,000 tested, 0.93% active. Potency, µM, for inactives: max response, negative = inhibition, most hits filed as inhibitors. VDR-SRC2-3 peptide fluorescence polarization, 2 h. P11473; active = well fitted inhibition curve with a large enough effect; inconclusive = small, poorly fitted or top-dose-only effect, or another doubt; inactive = no such curve, though single readings can be large or run the other way; note: series mostly up to about 120 µM
Target sequence (P11473 whole entry, looked up): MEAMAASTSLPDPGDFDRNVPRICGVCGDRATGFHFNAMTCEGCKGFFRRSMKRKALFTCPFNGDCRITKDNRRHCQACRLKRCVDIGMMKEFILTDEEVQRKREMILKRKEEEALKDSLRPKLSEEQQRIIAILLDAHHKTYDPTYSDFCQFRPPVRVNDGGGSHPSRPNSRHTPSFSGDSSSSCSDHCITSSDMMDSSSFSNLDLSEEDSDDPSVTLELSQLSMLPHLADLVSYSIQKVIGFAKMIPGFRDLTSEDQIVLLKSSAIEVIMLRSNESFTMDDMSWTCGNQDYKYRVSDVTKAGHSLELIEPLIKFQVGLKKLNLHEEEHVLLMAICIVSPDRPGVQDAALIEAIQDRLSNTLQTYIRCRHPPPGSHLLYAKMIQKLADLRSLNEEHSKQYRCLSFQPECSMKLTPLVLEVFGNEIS
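After 23 nl compound addition and a short centrifugation, plates sat for 2 hours at ambient temperature; polarization of fluorescence then indicated loss of VDR binding to peptide SRC2-3.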
* hit, by the source's call; ? = inconclusive; & = joins results of further samples. % is set by controls: 0 for no effect and ±100 for the full control effect; potency is the fitted concentration of half-maximal effect. A portion of the library, so the mix of outcomes need not match the whole.

VDR inh	canonical_smiles
11%	Cc1ccccc1N1CCN(C(=O)NCc2cccc(Cl)c2)CC1
-15%	O=C(Nc1ccncc1)C1CCN(S(=O)(=O)c2ccccc2)CC1
-3%	O=C(NCc1ccc(F)cc1)C1CCCN1S(=O)(=O)c1ccccc1C(F)(F)F (stereo not drawn)
18µM*	Cc1ccc(Cn2c(=S)[nH]c3ccc(N4CCOCC4)cc3c2=O)o1
3%	CCOC(=O)C1(Cc2ccccc2)CCN(CC2CC=CCC2)CC1 (stereo not drawn)
9%	Cc1nc(C(=O)Nc2ccc(Cl)cc2Cl)nn1-c1cc(OC(C)C)c(Cl)cc1Cl
-1%	O=C1c2cc(Cl)ccc2OC2(CCNCC2)C12CC(c1ccccc1)=NO2 (stereo not drawn)
0%	NC(=O)C1(N2CCCCC2)CCN(c2nc(-c3ccccc3)cs2)CC1
-10%	COc1ccc(OCc2nnc(SCC(=O)N3c4ccccc4Sc4ccc(Cl)cc43)o2)cc1
16%	CCC1CCCCN1CC(=O)c1c(C)[nH]c2ccccc12 (stereo not drawn)
?	CCCCCC(=O)Nc1sc(C)c(C)c1C#N
-19%	C=CCOc1c(Br)cc(CNc2ccc(NC(=O)C(C)C)cc2)cc1OCC
-14%	COc1cc(OC)c(/C=N/NC(N)=S)cc1Br
?	C=CCNC(=O)CSc1ncc2c(n1)-c1c(csc1SC)CC2
-17%	Cc1ccc(OC(=O)C2CCN(C(=O)c3ccccc3C)CC2)c(Br)c1
-9%	Cn1c(-c2sc3cc(C(F)(F)F)cnc3c2-c2ccccn2)n[nH]c1=S
-8%	COc1cc(N/C(N)=N/c2nc(C)cc(C)n2)c(OC)cc1Cl
-22%	CC1CC(C)CN(C(=O)COC(=O)c2ccc[nH]c2=O)C1 (stereo not drawn)
-3%	COc1ccc(Cn2ccc3nc(C)c(C(=O)NCc4ccc(SC)cc4)cc3c2=O)cc1
4%	COc1ccc(Cl)cc1N(CC(=O)Nc1ccccc1C(=O)N1CCCC1)S(C)(=O)=O
17%	CSC(=NC#N)N1CCN(C(=NC#N)SC)CC1
-15%	CC(=O)Nc1ccc(NC(=O)CSc2nnnn2-c2ccc3c(c2)OCCO3)cc1
-14%	COc1ccccc1NC(=O)c1c(C)nc2ccccc2c1C(=O)O
4%	CCn1c(C(=O)NCc2ccccc2Cl)cc2sc(Cl)cc21
2%	CCSc1nnc(NC(=O)CSc2nccn2-c2cc(C)cc(C)c2)s1
-5%	O=C(O)c1ccc(Cl)c(S(=O)(=O)N2CCCC2)c1
1%	O=C1CS(=O)(=O)N(Cc2cccc(F)c2)c2ccc(Br)cc21
-21%	Cc1noc(C)c1COc1cccc(C(=O)Nc2ccc(C#N)cc2)c1
8%	Cc1cc(C)cc(N2C(=O)CCN(Cc3ccccc3)C2=O)c1
-12%	CCCCN(C(=O)c1ccc2c(c1)OCCO2)c1c(N)n(CC(C)C)c(=O)[nH]c1=O
3%	Nc1nc(Br)c2c(F)cccc2c1-c1ccc(F)cc1
-2%	CCC1=NN(C(=O)c2ccccc2O)C(O)(c2ccccc2)C1 (stereo not drawn)
-10%&8%	Cc1ccc(NC(=O)c2cc(S(=O)(=O)N3CCCC3)c[nH]2)c(C)c1
10%	CCOc1ccccc1Oc1coc2cc(OCC(=O)O)ccc2c1=O
-13%	CCOc1ccc(NC(=O)c2ccc3c(c2)nnn3C2CCCC2)cc1
0%	COC(=O)[C@H](Cc1ccccc1)NS(=O)(=O)N[C@@H](Cc1ccccc1)C(=O)OC
-10%	O=C(OC12CC3CC(CC(C3)C1)C2)c1ccc(NCc2cc(O)ccc2O)cc1
-3%	O=[N+]([O-])c1ccc(O)c(/C=N/n2cnc3ccccc32)c1
-9%	COc1cccc(-c2cc(C(=O)N3C(C)CCCC3C)no2)c1 (stereo not drawn)
-14%	Cc1cc(NC(=O)CSc2ncnc3c2cnn3-c2ccccc2)no1
-4%	COC(=O)CN1C(=S)N(c2ccc(F)cc2)C(=O)C1CC(=O)Nc1ccccc1 (stereo not drawn)
21%	Cc1ccc(-c2cc(C(=O)O)c3ccccc3n2)s1
-7%	Cc1cccc(C#N)c1NC1=CC(=O)CC(C)(C)C1
4%	Cc1c(Cl)cnc(NC(=O)COC(=O)C2CC2)c1Cl
-19%	O=C(OCc1cc(Cl)cc2c1OCOC2)c1cccnc1Cl
13%	CCN(CC)CC(=O)n1c2c(c3ccccc31)CCCC2
12%	COc1ccc2c(c1)C(=O)OC2CC(=O)O (stereo not drawn)
10%	CN(CCc1ccccn1)C(=S)Nc1ccc(Cl)c(Cl)c1
-1%	O=C(OCc1ccccc1F)c1ccc(-c2nnn(Cc3ccccc3)n2)cc1
79µM*	c1ccc(Cc2nn3c(COc4ccccc4)nnc3s2)cc1
-12%	O=C(CN1C(=O)/C(=C/c2ccco2)SC1=S)NC1CCS(=O)(=O)C1 (stereo not drawn)
0%	CC(C)C(C(=O)Nc1sc2c(c1C#N)CCCCC2)N1C(=O)c2ccccc2C1=O (stereo not drawn)
1%	CCOc1ccc2c(c1)s/c(=N\S(=O)(=O)c1ccc(OC)cc1)n2C(F)F
24%	COc1ccc(C(=O)N(Cc2ccc(N(C)C)cc2)CC2CCCO2)cc1 (stereo not drawn)
6%	Cc1ccc(C2/C(=C(\O)c3c(C)nc4ccccn34)C(=O)C(=O)N2CCN(C)C)o1 (stereo not drawn)
0%	CC(NC(=O)CCc1ccccc1)c1cc2c(cc1Cl)OCCO2 (stereo not drawn)
-3%	CCOC(=O)CCC(=O)c1c(C)oc2ccc(OC)cc12
?	CC(C)(C)OC(=O)C[C@H]1C/C=C\C[C@@H](CC(=O)N(CCO)Cc2ccccc2)C(=O)N2CCC[C@H]2COC1=O
-20%	CC(C)CCCC(C)C1CCC2C3=CC[C@@H]4CC(O)CC[C@@]4(C)C3CC[C@]21C (stereo partly drawn)
-12%	CCOC(=O)C1(Cc2cccc(OC)c2)CCN(Cc2cccc(OC)c2O)CC1

An excerpt of these results, with bars between the fields.
SMILES | VDR inh
Nc1nc(Br)c2c(F)cccc2c1-c1ccc(F)cc1 | 3%
CCC1=NN(C(=O)c2ccccc2O)C(O)(c2ccccc2)C1 (stereo not drawn) | -2%
Cc1ccc(NC(=O)c2cc(S(=O)(=O)N3CCCC3)c[nH]2)c(C)c1 | -10%&8%
CCOc1ccccc1Oc1coc2cc(OCC(=O)O)ccc2c1=O | 10%
CCOc1ccc(NC(=O)c2ccc3c(c2)nnn3C2CCCC2)cc1 | -13%
COC(=O)[C@H](Cc1ccccc1)NS(=O)(=O)N[C@@H](Cc1ccccc1)C(=O)OC | 0%
O=C(OC12CC3CC(CC(C3)C1)C2)c1ccc(NCc2cc(O)ccc2O)cc1 | -10%
O=[N+]([O-])c1ccc(O)c(/C=N/n2cnc3ccccc32)c1 | -3%
COc1cccc(-c2cc(C(=O)N3C(C)CCCC3C)no2)c1 (stereo not drawn) | -9%
Cc1cc(NC(=O)CSc2ncnc3c2cnn3-c2ccccc2)no1 | -14%
COC(=O)CN1C(=S)N(c2ccc(F)cc2)C(=O)C1CC(=O)Nc1ccccc1 (stereo not drawn) | -4%
Cc1ccc(-c2cc(C(=O)O)c3ccccc3n2)s1 | 21%
Cc1cccc(C#N)c1NC1=CC(=O)CC(C)(C)C1 | -7%
Cc1c(Cl)cnc(NC(=O)COC(=O)C2CC2)c1Cl | 4%
O=C(OCc1cc(Cl)cc2c1OCOC2)c1cccnc1Cl | -19%
CCN(CC)CC(=O)n1c2c(c3ccccc31)CCCC2 | 13%

(further entries)
VDR inh	canonical_smiles
?	O=C(Nc1nc(-c2ccccn2)cs1)Nc1ccc(F)cc1F
-1%	CCCN(CCC)C(=O)C1CCCN(S(=O)(=O)c2cc(Br)cc3c2N(C(=O)CC)CC3)C1 (stereo not drawn)
3%	Cc1cccc2cc(CN(Cc3nnnn3Cc3ccco3)C3CCCC3)c3nnnn3c12
5%	Cc1c(C(=O)Nc2nnc(C3CC3)s2)oc2ccccc12
8%	CN(Cc1ccccc1)S(=O)(=O)c1ccc2c(c1)n(C)c(=O)n2C
-5%	CC(C)CCn1c(NCCc2ccccc2)nc2c1c(=O)n(C)c(=O)n2C
-17%	Cc1cccc(C)c1NC(=O)COC(=O)Cc1ccsc1
-17%	COc1cccc(CNC(=O)CCc2nnc3n(C)c(=O)c4sccc4n23)c1
-16%	CCCC(C(=O)NC1CCCCC1)N(CC1CCCO1)C(=O)CNS(=O)(=O)c1ccc(F)cc1 (stereo not drawn)
0%&27%&-1%	CN(C)CCCc1cc(C(=O)Nc2ccc(-c3ccncc3)cc2)ccc1O
18%	COCCNC(=S)N(CCc1c(C)[nH]c2ccc(F)cc12)Cc1ccc(C)cc1
-7%	CC(Oc1ccc(F)cc1)C(=O)Nc1ccccc1N1CCCCC1 (stereo not drawn)
12%	CCOC(=O)C1CCCN(C(=O)COc2ccc(C(=O)c3ccccc3)cc2)C1 (stereo not drawn)
-6%	Cc1cc(C)c(C#N)c(OCC(=O)c2ccccc2)n1
11%	CCn1cc(S(=O)(=O)c2ccc(OC)cc2)c(=O)c2cc(F)c(N3CCCCCC3)cc21
?	CCCCNc1ncnc2oc(-c3ccco3)c(-c3ccco3)c12
-28%	COC(=O)C1=C(C(=O)OC)[C@]2([C@H]3CCCCN[C@@H](Cc4ccccc4)C(=O)N3Cc3ccccc3)C=C[C@H]1O2
0%	CC(C)Cn1c(SCC(=O)c2c(N)n(C)c(=O)n(C)c2=O)nc2ccccc21
-2%	O=C(Nc1cccn(Cc2ccccc2Cl)c1=O)NC1CCCCC1
35µM*	CCc1c(C)sc(NC(=O)c2ccoc2C)c1C(N)=O
-5%	COc1ccc(Cl)cc1S(=O)(=O)NCc1cccnc1
8%	COc1ccccc1OCc1ccc(C(=O)N2CCN3CCCC3C2)cc1 (stereo not drawn)
-6%	COc1cccc(/C=N\NC(=O)c2ccc(C)nc2)c1
8%	CCC1(c2ccc(F)cc2)NC(=O)N(CC(=O)Nc2cccc(S(=O)(=O)N3CCCC3)c2)C1=O (stereo not drawn)
-19%	c1ccc(CN2CCN(Cc3c[nH]c4ccccc34)CC2)cc1
19%	Cc1ccc(S(=O)(=O)CCC(=O)N2CCN(c3ccccc3O)CC2)cc1
6%	COc1ccc(-c2cc(C(F)F)n3ncc(C(=O)NCCCN4CCCC4=O)c3n2)cc1
-22%	CN/N=C/c1ccc(C#N)cc1
-12%	O=C(Oc1ccccc1Cl)c1ccccc1
15%	CCN(CC)C(=O)C(Oc1ccc(C)nc1[N+](=O)[O-])c1ccccc1 (stereo not drawn)
-13%	CCOc1ccc2sc(NS(=O)(=O)c3ccc(OC)c(OC)c3)nc2c1
-12%	O=C(COC(=O)c1cncc(Br)c1)NCc1ccc(F)cc1
-11%	CCn1cc(C(=O)NCc2ccc(C)cc2)c(=O)c2cc(S(=O)(=O)N(C)C3CCCCC3)ccc21
1%	Cc1sc2c(c1C)c(=O)n(Cc1ccccc1)c(=O)n2CC(=O)Nc1cccc(Cl)c1
-11%	O=c1cc(Cl)[nH]n(-c2ccccc2)c1=O
-15%	CCOC(=O)c1ccc(-n2c(-c3ccc(C)cc3)c(C)n3c4c(=O)n(C)c(=O)n(C)c4nc23)cc1
-1%	CC(C)CNC(=O)CN1c2cccc3cccc(c23)S1(=O)=O
-2%	Cc1ccc(C(=O)N[C@H](C(=O)Nc2sccc2C(N)=O)C(C)C)cc1
-28%	Cc1onc(-c2ccccc2)c1C(=O)N/N=C/c1cc2c(cc1Cl)OCO2
-22%	O=c1[nH]c(CSc2cccc[n+]2[O-])nc2ccccc12
-4%	O=C(Nc1ccnc(-c2ccncc2)n1)c1ccc(Cl)cc1
-8%	O=C(C[C@@H]1C/C=C\C[C@H](Cc2ccc(F)cc2)C(=O)OC[C@H]2CCCN2C1=O)N[C@H](CO)Cc1ccccc1
3%	Cc1cnc(C(=O)OCC(=O)NCc2ccccc2)cn1
1%	C[C@@H]1CN([C@H](C)CO)C(=O)c2cc(NS(=O)(=O)c3cn(C)cn3)ccc2O[C@H]1CN(C)C(=O)Nc1ccccc1
12%	CCN(c1ccccc1)S(=O)(=O)c1ccc(N)cc1
11%	Cc1ccccc1Cn1c(-c2ccc(=O)[nH]c2)nc2ccccc21
20%	CC(NS(=O)(=O)c1ccc(N)cc1)C1CC2CCC1C2 (stereo not drawn)
8%	COc1ccc(-c2nc(CNS(=O)(=O)c3ccc(Br)cc3)cs2)cc1
-6%&-6%	COc1ccc(C2CC(c3ccccc3)Oc3cc(C)cc(C)c32)cc1 (stereo not drawn)
10%	Brc1ccc(-c2csc(Nc3nc(-c4ccc(Br)cc4)cs3)n2)cc1
-7%	O=C(CCN1C(=O)c2ccccc2C1=O)Nc1cccc(F)c1
-3%	CCOC(=O)CSC1=C(C#N)C(c2ccccc2OCC)C(C(=O)OCC)C(=O)N1 (stereo not drawn)
15%	O=C(c1ccc2c(c1)OCO2)N1CCN=C1SCc1ccccc1
8%	Cc1cc(=O)oc2cc(OCC(=O)NCC3CCC(C(=O)O)CC3)ccc12 (stereo not drawn)
-8%	Cc1ccc(NC(=O)Cn2nc(C(F)(F)F)c3c2CCCC3)cc1
-15%	CCOC(=O)C(C(=O)OCC)c1c([N+](=O)[O-])c(=O)n2c3c(cccc13)CCC2
-13%	CCOC(=O)N1CCC(Nc2cc(C)nc3c(-c4ccccc4OC)c(C)nn23)CC1
-2%	CCNC(=O)COC(=O)c1cc(=O)[nH]c2ccccc12
-8%	O=C(Nc1ccccc1F)c1ccc(-c2ccccc2)s1
-21%	O=C(c1nc2ccc(Cl)cn2c1CNCC[C@@H]1C[C@@H]2C=C[C@H]1C2)N1CCCCCCC1

Quoted at random: 2 entries already listed.
VDR inh	canonical_smiles
-7%	CC(Oc1ccc(F)cc1)C(=O)Nc1ccccc1N1CCCCC1 (stereo not drawn)
-22%	CC1CC(C)CN(C(=O)COC(=O)c2ccc[nH]c2=O)C1 (stereo not drawn)

Other structures follow:
VDR inh	canonical_smiles
-10%	O=S(=O)(NC1c2cccc3cccc(c23)C1N1CCN(CCO)CC1)c1ccccc1 (stereo not drawn)
-6%	COc1ccc(C(CC(=O)Nc2ccccn2)N2Cc3ccccc3C2=O)cc1 (stereo not drawn)
-5%	CCOC(=O)C(C)Sc1nc(-c2cccs2)ccc1C#N (stereo not drawn)
-10%	O/N=C/c1ccc2ccccc2n1
-7%	Cc1ccn2c(NC(=O)c3ccccc3)c(-c3ccccc3)nc2c1
